Assay outcomes (PubChem BioAssay)
MbtI inh – MbtI salicylate synthase inhibition. P9WFX0. purified MbtI enzyme, fluorescence intensity read-out. inhibition, %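 (about 17 µg/mL by stock and volumes)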. 100,000 compounds, 0.89% hits. AID 493033;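 active = above 50% in both replicates, above 80% if mildly self-fluorescent; inactive = the rest, strongly fluorescent compounds included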;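 note: 0% = mean of negative and 100% = mean of positive controls; one replicate is shown; some compounds called inactive have numbers as strong as hits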
Target sequence (P9WFX0 whole entry, looked up): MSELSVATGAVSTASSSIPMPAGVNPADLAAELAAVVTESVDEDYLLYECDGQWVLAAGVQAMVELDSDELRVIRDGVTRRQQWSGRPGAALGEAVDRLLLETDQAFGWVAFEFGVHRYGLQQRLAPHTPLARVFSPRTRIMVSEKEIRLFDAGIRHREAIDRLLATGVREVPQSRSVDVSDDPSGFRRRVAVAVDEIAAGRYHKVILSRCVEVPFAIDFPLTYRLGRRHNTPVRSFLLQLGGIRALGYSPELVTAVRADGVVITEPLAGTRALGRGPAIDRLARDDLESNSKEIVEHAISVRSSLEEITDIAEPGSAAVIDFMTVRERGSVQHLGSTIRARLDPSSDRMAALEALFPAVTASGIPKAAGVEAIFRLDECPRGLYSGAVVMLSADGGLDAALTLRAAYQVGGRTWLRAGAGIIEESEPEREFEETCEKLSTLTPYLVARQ
Mtb MenB inh – blocks the Mycobacterium tuberculosis MenB enzyme; 100,000 compounds, 0.43% hits; inhibition, %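 (about 12 µg/mL by stock and volumes)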; MenB enzyme assay, absorbance read-out; some hits fall short of the stated cut; AID 540299;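 active = mean of two replicates above 30%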;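 note: 0% = no compound and 100% = wells with inactive enzyme; the first replicate is given; strong numbers were not always called active; inactives centre near -10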
PV pol inh – poliovirus RNA polymerase inhibition. poliovirus polymerase elongation, fluorescence polarization; hits give low values. AID 588519. 150,000 compounds, 0.66% hits. P03300. % elongation, % (compound at 16.7 µg/mL); in the data active = % elongation below about 90%; note: some results filed as inactive read as strong as hits
Target sequence (P03300 1749-2209 limits assumed): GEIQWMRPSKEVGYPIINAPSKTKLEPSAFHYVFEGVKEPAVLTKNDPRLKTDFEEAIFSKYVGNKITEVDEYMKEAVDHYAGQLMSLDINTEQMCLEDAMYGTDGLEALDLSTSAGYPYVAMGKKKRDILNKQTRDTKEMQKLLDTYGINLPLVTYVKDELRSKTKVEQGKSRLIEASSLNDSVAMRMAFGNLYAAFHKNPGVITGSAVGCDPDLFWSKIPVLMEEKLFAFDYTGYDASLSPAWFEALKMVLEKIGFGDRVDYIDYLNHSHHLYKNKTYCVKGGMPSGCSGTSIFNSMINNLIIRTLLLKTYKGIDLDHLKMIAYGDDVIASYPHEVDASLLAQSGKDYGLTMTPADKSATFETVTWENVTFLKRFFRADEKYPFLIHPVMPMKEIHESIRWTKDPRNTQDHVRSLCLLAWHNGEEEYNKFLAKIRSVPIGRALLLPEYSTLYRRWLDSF
PV pol inh intensity – second read-out of PV pol inh, no call of its own (marks repeat the call); % elongation; measured here: total intensity read-out; formula for this scale not given here;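 total fluorescence in place of polarization; lower means less elongation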
The depositor's hits bear a star; . = not tested or not shown; & = joins results of further samples. No enrichment for hits; overall some 2% were active at least once.

SMILES	MbtI inh	Mtb MenB inh	PV pol inh	PV pol inh intensity
CC(C)(C)c1cc(C(=O)N2CCN(c3ccc(C(F)(F)F)cn3)CC2)n(Cc2ccc(F)cc2)n1	1.1	2.6	100.0	96.0
Cc1ccc(-c2nn(-c3ccccc3)cc2C(=O)Nc2ccc3c(c2)OCO3)o1	20.9	-32.2	97.0	96.0
O=C1Nc2ccccc2/C1=N/n1c(-c2ccc(Cl)cc2)n[nH]c1=S	47.1	-61.9	95.0	97.0
Cc1ccc(OCc2ccc(C(=O)N(C)C3CCCCC3)o2)cc1C	.	0.0	104.0	97.0
OC12CCCCC1C(c1ccc(F)cc1)NCC2 (stereo unspecified)	-5.7	1.3	102.0	104.0
Cc1ccccc1C(=O)NCCC(C)C	.	9.2	101.0	105.0
COc1ccccc1CNc1ccccc1F	0.8	-12.8	104.0	103.0
CC1(C)O[C@@H]2C[C@H]3[C@@H]4CCC5=CC(=O)CC[C@]5(C)[C@@]4(F)[C@@H](O)C[C@]3(C)[C@]2(C(=O)CCl)O1	-8.9	6.1	101.0	100.0
CCCCNC(=O)c1ccc2c(c1)NC(=O)C(C)N2 (stereo unspecified)	5.3	-18.0	113.0	130.0
O=C(NCCC1=CCCCC1)C1CCCN(C(=O)N2CCOc3ccccc32)C1 (stereo unspecified)	-7.0	9.0	99.0	102.0
COc1ccc(NC(=O)CC(=O)CSc2ccccc2)cc1	.	-26.3	112.0	112.0
O=C(Cn1ncc2c(=O)oc3ccccc3c21)N1CCN(Cc2ccccc2)CC1	-3.2	-27.6	104.0	99.0
O=C1OC(c2ccccc2F)=N/C1=C\c1cccc(C(F)(F)F)c1	21.5	-1.0	98.0	93.0
CCCNS(=O)(=O)c1cccc(C(=O)NCCc2ccccc2)c1	-2.4	-20.0	103.0	99.0
COC(CN=Cc1c(O)[nH]c(=O)[nH]c1=O)OC	-2.1	-30.8	96.0	107.0
NC1=NC2(CCCCC2)N(c2ccc(F)cc2)C(N)=N1	-24.7	30.9	101.0	101.0
CN(CCc1ccccn1)Cc1ccccc1	1.0	43.8	101.0	102.0
CC(C)CC(=O)NN	0.0	-12.3	101.0	99.0
N#CC(C#N)=Cc1c(-c2ccccc2)nc2n1CCS2	0.9	5.4	94.0	94.0
Cc1ccc(C(=O)N2CCOCC2)cc1	-2.9	.	100.0	105.0

Pulled by structure from the list above:
SMILES	MbtI inh	Mtb MenB inh	PV pol inh	PV pol inh intensity
NC1=NC2(CCCCC2)N(c2ccc(F)cc2)C(N)=N1	-24.7	30.9	101.0	101.0
O=C1Nc2ccccc2/C1=N/n1c(-c2ccc(Cl)cc2)n[nH]c1=S	47.1	-61.9	95.0	97.0
CC1(C)O[C@@H]2C[C@H]3[C@@H]4CCC5=CC(=O)CC[C@]5(C)[C@@]4(F)[C@@H](O)C[C@]3(C)[C@]2(C(=O)CCl)O1	-8.9	6.1	101.0	100.0
CC(C)CC(=O)NN	0.0	-12.3	101.0	99.0

Going on with the list.
SMILES	MbtI inh	Mtb MenB inh	PV pol inh	PV pol inh intensity
COc1cccc(-n2c(Cc3cc(=O)[nH]c(=O)[nH]3)nnc2SCC(N)=O)c1	-4.6	-48.9	101.0	106.0
O=S(=O)(Nc1ccc2oc3c(c2c1)CCCC3)c1cccc2cccnc12	-3.1	10.0	100.0	102.0
Cc1ccc(C(=O)CNC(=O)C2Cc3ccccc3C(=O)O2)cc1 (stereo unspecified)	-13.7	-17.6	102.0	105.0
CCCCC/C=C\C/C=C\CCCCCCCCCC(=O)O	-5.2	1.9	100.0&97.0	104.0&102.0
COc1cccc(-c2noc(CCC(=O)N(C)C)n2)c1	-2.1	-1.9	102.0	99.0
CCOC(=O)c1cnc(COc2ccc(OC)cc2)[nH]c1=O	3.8	14.0	102.0	101.0
N#Cc1ccc(COC(=O)C2=NNC(=O)CC2)cc1	0.9	3.1	99.0	102.0
C=CCn1c(C)nnc1SCc1cc(=O)oc2cc(NC(C)=O)ccc12	57.3	-8.1	104.0	101.0
O=C(CS(=O)(=O)c1nc(-c2ccccc2)cn1-c1ccc(Cl)cc1)Nc1ccccc1	-5.1	-34.7	100.0	99.0
CCOC(=O)c1cc2c(oc1=O)c(I)cc1oc3c(c12)CCCC3	-3.8	-5.0	100.0	99.0
CC(O)CNc1nc2ccccc2n1CC(=O)N(Cc1ccccc1)C(C)C (stereo unspecified)	5.3	-21.9	100.0	103.0
COc1ccc(-c2noc(CC(=O)NCCC(C)C)n2)cc1	-8.2	-4.7	102.0	104.0
C/C(=N\NC(=O)c1cc(-c2ccccc2Cl)n[nH]1)c1ccco1	0.3	-10.6	106.0	102.0
CC1=NN(c2ccc(C(=O)O)cc2)C(=O)CC1	-12.4	-66.9	105.0	101.0
OCCNC(=S)NC1CC1	5.3	-4.9	104.0	101.0
CCOC(=O)c1c(NC(=O)CSc2nnnn2C)sc(C(=O)N(C)C)c1C	-5.7	-13.5	108.0	115.0
CCOC(=O)COc1cc2c3c(c(=O)oc2cc1C)CCCC3	1.4	1.6	100.0	101.0
C=CCNc1nc(-c2cc(C)n(C3CC3)c2C)cs1	-3.8	-22.6	104.0	100.0
N#Cc1ccc(C(=O)OC2CCCC2)cc1	1.1	.	101.0	102.0
COc1ccc(-c2cc(C(F)(F)F)nc(NC3CCCC3)n2)cc1	118.2	-8.5	103.0	103.0
COc1ccccc1CNN	-0.8	-37.1	104.0	102.0
COC(=O)CCS(=O)(=O)c1ccc(C)cc1	-12.3	-54.7	103.0	102.0
COc1cccc(C(=O)N(Cc2cccnc2)Cc2cc3ccccc3[nH]c2=O)c1	65.0	8.1	100.0	101.0
CCC(=O)NC(Cc1ccccc1)c1nc2ccccc2[nH]1 (stereo unspecified)	-19.8	-22.2	104.0	101.0
CN(C(=O)COC(=O)c1ccc(I)cc1)c1ccccc1	-8.4	.	101.0	107.0
O=c1[nH]c2ccccc2n1CCCN1CCC(n2c(=O)[nH]c3cc(Cl)ccc32)CC1	-4.2	-10.9	100.0	99.0
CSC1=NN1c1cc(C)nc(N)n1	10.1	-14.5	102.0	104.0
CCOC(=O)C1CCN(/C=C(\C#N)S(=O)(=O)C(C)(C)C)CC1	-5.1	-28.3	107.0	111.0
COc1ccc(CNC(=O)c2cccc3c2C(=O)N(c2ccc(OC)cc2)C3)cc1	-5.9	-9.2	103.0	102.0
CN1CCN(Cc2c(O)ccc3c(=O)c(Oc4ccccc4Cl)c(C(F)(F)F)oc23)CC1	-2.1	2.1	99.0	103.0
CC1CN/C(=C/C(=O)c2ccc(Br)cc2)C(=O)N1 (stereo unspecified)	-3.6	-28.8	105.0	102.0
C/C(N)=C(/C#N)C(=O)Cn1ncc(Cl)c(Cl)c1=O	27.1	-17.0	98.0	99.0
CC(C)C(=O)NCCN1CCOCC1	-0.7	14.5	102.0	102.0
Cc1cc2c(cc1C)NC(CC(N)=O)C(=O)N2 (stereo unspecified)	6.4	11.0	100.0	106.0
Cn1c(=O)n(CCCOc2ccc(Cl)cc2)c2ccccc21	-0.8	-23.7	99.0	103.0
Cc1ccc(Cn2cnc3cc(C)c(C)cc32)cc1	3.9	-41.1	103.0	101.0
CC1=CCC2(C(=O)OC(C)(C)OC2=O)C(c2ccc(Br)cc2)C1 (stereo unspecified)	-1.2	0.9	101.0	103.0
Cn1cccc/c1=N/c1cccc[n+]1C	0.4	-31.1	101.0	101.0
CC1CCCCC1NC(=O)c1cc(-c2cccs2)nc2ccccc12 (stereo unspecified)	101.1	-12.3	100.0	103.0
Cn1c(SC/C(O)=C(\C#N)c2nc3ccccc3[nH]2)nc2ccccc21	-24.4	-34.3	113.0	117.0

Some of the entries above, reformatted:
Structure | MbtI inh | Mtb MenB inh | PV pol inh | PV pol inh intensity
COc1ccccc1CNc1ccccc1F | 0.8 | -12.8 | 104.0 | 103.0
CC1(C)O[C@@H]2C[C@H]3[C@@H]4CCC5=CC(=O)CC[C@]5(C)[C@@]4(F)[C@@H](O)C[C@]3(C)[C@]2(C(=O)CCl)O1 | -8.9 | 6.1 | 101.0 | 100.0
CCCCNC(=O)c1ccc2c(c1)NC(=O)C(C)N2 (stereo unspecified) | 5.3 | -18.0 | 113.0 | 130.0
O=C(NCCC1=CCCCC1)C1CCCN(C(=O)N2CCOc3ccccc32)C1 (stereo unspecified) | -7.0 | 9.0 | 99.0 | 102.0
COc1ccc(NC(=O)CC(=O)CSc2ccccc2)cc1 | . | -26.3 | 112.0 | 112.0

Going on with the list:
SMILES	MbtI inh	Mtb MenB inh	PV pol inh	PV pol inh intensity
N#CC1=C(N)Nc2c(c(=O)oc3ccccc23)C1c1ccc(Br)cc1 (stereo unspecified)	.	-27.3	110.0	122.0
O=C1CN(CC(=O)NC2CCCc3ccccc32)CCN1 (stereo unspecified)	-13.9	-5.9	104.0	112.0
CCOc1ccc2[nH]c(=O)c(CN(C(=S)NCc3ccco3)C3CCCC3)cc2c1	-25.9	-21.9	102.0	103.0
O=S(=O)(c1ccccc1)N1CCN(c2ccccc2)CC1	.	-0.6	104.0	107.0
O=C(CN1CCc2ccccc21)NN1CC(=O)N(c2ccccc2)CC1=O	-6.7	-12.0	101.0	104.0
Cc1ccc2c(c1)N(CCC(=O)NC1CCC(C)CC1)C(=O)CO2 (stereo unspecified)	-1.0	-17.4	105.0	108.0
Cc1cc(/C=C(\C#N)C(=O)OCN2C(=O)c3ccccc3C2=O)c(C)n1CC(C)C	13.6	1.6	102.0	109.0
CN(C(=O)CSc1nc2ccccc2c(=O)n1C)c1ccccc1	5.3	-10.1	99.0	103.0
O=C(Nc1cccc(Cl)c1)N1CCN(CCc2ccccc2)CC1	-11.1	-9.2	103.0	104.0
Cc1ccc(NCCC(=O)O)cc1	-3.0	.	104.0	108.0
N=C1C(c2nc3ccccc3s2)=C(O)CN1/N=C1\C(=O)Nc2ccccc21	1.1	-4.5	100.0	103.0
O=c1c2ccccc2n(Cc2ccc(Cl)cc2)c(=O)n1Cc1ccc(Cl)cc1	-9.4	13.2	104.0	109.0
COc1ccc2nc3c(nc2c1)-c1cccc2cccc-3c12	.	-4.9	108.0	112.0
CC1Cn2cc(C(=O)N3CCCc4ccccc43)c(=O)c3c(Cl)ccc(c32)O1 (stereo unspecified)	10.4	10.8	99.0	102.0
CC(NC(=O)CN(C)Cc1cccc(F)c1)c1ccccc1 (stereo unspecified)	2.9	-9.4	100.0	105.0
Cc1cc(C(=O)N2CCCC2C(=O)O)c(C)o1 (stereo unspecified)	.	-2.6	100.0	94.0
c1ccc2c(c1)CCN2c1nn2nnnc2c2ccccc12	-6.8	-18.1	100.0	105.0
CC(C)C(=O)Nc1ccccc1-c1nc2ccccc2[nH]c1=O	11.6	-9.4	102.0	103.0
CC1=C(C#N)C(c2cccnc2)C2=C(N1)c1ccccc1C2=O (stereo unspecified)	11.9	10.9	97.0	95.0
COc1ccc(C(=O)Nc2ccc(S(=O)(=O)N3CCCCC3C)cc2)c(OC)c1OC (stereo unspecified)	.	-24.3	105.0	98.0

Entries of single compounds from above:
`O=S(=O)(c1ccccc1)N1CCN(c2ccccc2)CC1` in the list: MbtI inh = .; Mtb MenB inh = -0.6; PV pol inh = 104.0; PV pol inh intensity = 107.0
`CC(C)C(=O)Nc1ccccc1-c1nc2ccccc2[nH]c1=O` in the list: MbtI inh = 11.6; Mtb MenB inh = -9.4; PV pol inh = 102.0; PV pol inh intensity = 103.0
`CCOc1ccc2[nH]c(=O)c(CN(C(=S)NCc3ccco3)C3CCCC3)cc2c1` in the list: MbtI inh = -25.9; Mtb MenB inh = -21.9; PV pol inh = 102.0; PV pol inh intensity = 103.0

Additional compounds.
SMILES	MbtI inh	Mtb MenB inh	PV pol inh	PV pol inh intensity
COC(=O)c1cc2sccc2n1C(C)C(=O)Nc1cc(Cl)ccc1C (stereo unspecified)	11.2	-14.1	102.0	105.0
CC1C/C(=N\O)c2cc(Cl)ccc2S1(=O)=O (stereo unspecified)	7.1	11.9	104.0	102.0
C=CCn1c(SCC(N)=O)nnc1-c1ccc(OC)c(OC)c1	3.2	-11.5	99.0	101.0
O=C(Nc1ccc(F)cc1F)c1ccc(COc2c(F)c(F)cc(F)c2F)o1	8.2	14.6	100.0	105.0
NC(=O)COC(=O)c1cc(-c2ccccc2)nc2ccccc12	13.2	.	102.0	97.0
Cc1ccc(C(=O)OCC(=O)N2CCCC2)s1	-8.4	.	103.0	108.0
CCN(CC(=O)Nc1ccc2c(c1)OCCO2)Cc1cc(=O)oc2cc(C)c(C)cc12	-12.9	-16.5	104.0	108.0
O=C(NC(=O)c1c(F)cccc1F)O/N=C1\CCCc2occc21	10.1	-17.0	102.0	104.0
CCOC(=O)NC(=S)Nc1cccc(C)n1	-8.9	-3.7	107.0	105.0
Cc1cc2nc3c(c(C(F)(F)F)n2n1)CCc1ccccc1-3	-12.4	-13.1	101.0	105.0
FC(F)(F)COc1nc(OCC(F)(F)F)nc(OCC(F)(F)F)n1	-4.2	-8.6	103.0	103.0
CCc1ccc(Nc2ncnc3nc[nH]c23)cc1	-26.4	3.1	102.0	103.0
CCCc1ncc(C[n+]2ccccc2C)c(N)n1	-8.0&-6.5	5.2&6.8	96.0&99.0	105.0&102.0
CCCc1cc(=O)[nH]c(/N=C(/NC(=O)C(C)N2C(=O)c3ccccc3C2=O)Nc2ccccc2)n1 (stereo unspecified)	-9.5	-18.6	99.0	102.0
O=c1oc2ccccc2cc1S(=O)(=O)c1ccc(F)cc1	110.5	-23.7	103.0	105.0
